LASV entry inh: inhibitors of Lassa virus binding or cell entry. hit rate 1.2% among 300,000. Lassa virus pseudotype entry inhibition, cell reporter; control for the full effect not named in the record. Potency, µM (highest dose often 37.9 µM), without a hit: at the top dose activity change, negative = inhibition, hits mostly inhibitors; active means well fitted inhibition curve with a large enough effect; inconclusive means small, poorly fitted or top-dose-only effect, or effect the other way; inactive means flat fitted curve, though single readings scatter; tested in HEK293 cells; note: % is set by controls: 0 for no effect and ±100 for the full control effect; nearly all actives have a fitted effect of over 50% in size; luciferase read-out
NS1 function inh: inhibitors of influenza NS1 protein function; hit rate 0.4% among 270,000; AID 2326; Potency, µM (series often up to 46.1 µM), without a hit: top-dose activity, positive = more growth; S. cerevisiae slowed by influenza A NS1, growth recovery by OD600; active means well fitted rising curve with a large enough effect; inconclusive means small, poorly fitted or top-dose-only effect; inactive means no such curve, though single readings can be large or run the other way; note: nearly all actives have a fitted effect of over 50% in size
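A cell-based growth assay was used: compounds that relieve NS1-induced slow growth of budding yeast raise OD600. Assay medium was yeast nitrogen base with ammonium sulphate and -URA supplement, pH 6.0, with 2% galactose.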
2A StopGo: lowers the luciferase signal of an FMDV 2A StopGo reporter | human cells with a luciferase reporter of 2A StopGo recoding; control for the full effect not named in the record | Potency, µM (top dose mostly 57.9 µM), for inactives: top-dose signal change, negative = less light | AID 1159524 | hit rate 1.2% among 410,000; active = well fitted falling curve with a large enough effect; inconclusive = small, poorly fitted or top-dose-only effect; inactive = no such curve, though single readings can be large or run the other way; tested in HEK293T cells; note: % is set by controls: 0 for no effect and ±100 for the full control effect; nearly all actives have a fitted effect of over 45% in size; luciferase light after 4 h
RE007 growth inh: less growth of the S. pombe RE007 Vpr strain; S. pombe RE007 Vpr strain, BacTiter-Glo ATP luminescence, 24 h; control for the full effect not named in the record; Potency, µM (series often up to 92.2 µM), without a hit: at the top dose activity change, negative = less growth; hit rate 0.21% among 360,000; AID 651644; active = well fitted falling curve with a large enough effect; inconclusive = small, poorly fitted or top-dose-only effect; inactive = no such curve, though single readings can be large or run the other way;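 note: % is set by controls: 0 for no effect and ±100 for the full control effect; nearly all actives have a fitted effect of over 50% in size; the assay follows cell death caused by Vpr and the record does not say whether a fall means rescue or toxicity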
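Fission yeast strain RE007, carrying one chromosomally integrated HIV-1 vpr copy, was seeded at OD 0.01 in PMG+AL medium with 23 nL pinned compound. After 24 h at 30 °C and 99% humidity, viability was read by BacTiter-Glo luminescence.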
Cruzain inh Det: inhibitors of Trypanosoma cruzi cruzain with detergent | Potency, µM, without a hit: max response, negative = inhibition, most hits filed as inhibitors | hit rate 0.43% among 200,000 | P25779 | purified cruzain, Z-FR-AMC fluorescence, 0.01% Triton;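 note: plate controls were neutral wells for no effect and buffer without enzyme for full effect; nearly all actives have a fitted effect of over 40% in size; top concentration of the series not given in the record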
Target sequence (P25779 123-467 limits assumed): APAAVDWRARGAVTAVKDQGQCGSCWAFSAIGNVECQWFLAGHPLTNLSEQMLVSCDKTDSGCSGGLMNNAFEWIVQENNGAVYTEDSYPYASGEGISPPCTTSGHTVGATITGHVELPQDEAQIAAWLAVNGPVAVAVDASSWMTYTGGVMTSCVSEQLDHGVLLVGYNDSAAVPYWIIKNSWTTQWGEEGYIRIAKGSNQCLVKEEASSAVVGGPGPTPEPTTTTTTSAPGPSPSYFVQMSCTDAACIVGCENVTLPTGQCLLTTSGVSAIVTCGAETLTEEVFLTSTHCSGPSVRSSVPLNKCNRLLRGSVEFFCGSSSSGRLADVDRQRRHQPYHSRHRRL
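Sodium acetate buffer (100 mM, pH 5.5) containing 5 mM DTT and 0.01% Triton X-100 hosted 1.5 nM cruzain and test compound for 15 min at room temperature. Cleavage of 2 uM Z-FR-AMC was then tracked by fluorescence.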
SARS PLpro yeast: blocks SARS-CoV papain-like protease in a yeast assay; S. cerevisiae expressing SARS-CoV PLpro, growth rescue; control for the full effect not named in the record; Potency, µM (top dose mostly 32.9 µM), inactives show at the highest dose activity, positive = growth rescue; hit rate 0.19% among 330,000; active means well fitted rising curve with a large enough effect; inconclusive means small, poorly fitted or top-dose-only effect; inactive means no such curve, though single readings can be large or run the other way; note: 0% is about no effect; nearly all actives have a fitted effect of over 55% in size; growth read by luminescence after 48 h
MARV entry inh: Marburg virus entry inhibition. Marburg virus pseudotyped entry inhibition, cell reporter; control for the full effect not named in the record; about a third of the inactives were read at about 46 µM. Potency, µM (top dose mostly 37.8 µM), for the others: at the highest dose activity change, negative = inhibition, actives largely listed as inhibitors. hit rate 1.8% among 300,000; active = well fitted inhibition curve with a large enough effect; inconclusive = small, poorly fitted or top-dose-only effect, or effect the other way; inactive = flat fitted curve, though single readings scatter; tested in HEK293 cells; about a fifth of its hits are not listed in these tables; note: % is set by controls: 0 for no effect and ±100 for the full control effect; luciferase read-out
Cruzain noTriton: inhibitors of Trypanosoma cruzi cruzain without detergent; P25779; purified cruzain, Z-FR-AMC fluorescence, no detergent; AID 1476; hit rate 2.3% among 200,000; Potency, µM, for the others: max response, negative = inhibition, hits mostly inhibitors;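 note: plate controls were enzyme without inhibitor for no effect and buffer without enzyme for full effect; nearly all actives have a fitted effect of over 40% in size; top concentration of the series not given in the record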
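Purified cruzain at 1.5 nM, pre-incubated 15 min with compound at room temperature in 100 mM sodium acetate pH 5.5, 5 mM DTT, 0.00005% Triton X-100. Reaction started with 2 uM Z-FR-AMC; AMC fluorescence increase over 60 s gives rate.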
* = called active by the depositor; ? = inconclusive; / = not tested or not shown; & = joins results of further samples; [ ] = another dose, or the depositor's remark. Unless noted, calls come from the whole dose curve; as a rule, active = well fitted curve in the direction sought with a large enough effect; inconclusive = small, poorly fitted or top-dose-only effect, or another doubt; inactive = no such curve, though single readings can be large; an effect the other way counts as inactive or inconclusive. Potency is the fitted concentration of half-maximal effect.

Order of values: 2A StopGo	RE007 growth inh	SARS PLpro yeast	LASV entry inh	Cruzain noTriton	NS1 function inh	MARV entry inh	Cruzain inh Det
COc1ccc(CN2CCN(C(=O)CC(C)C)CC2)c2ccccc12
  0%	29%	-4%	-10%	8%	-20%	21%	5.3%
O=C(OCc1ccccc1F)c1cc([N+](=O)[O-])ccc1N1CCOCC1
  -19%	2%	-2%	-5%	/	/	?	/
Cc1ccc(CNc2cnccn2)s1
  12%	5%	0%	/	/	0%	/	/
COc1ccc(-c2[nH]ncc2/C=C(\C#N)C(=O)NC2CC2)cc1
  -15%	3%	4%	?	1%	-9%	-28%[46.1 µM]	-1.5%
COc1ccc(Cn2nnnc2C(c2cccs2)N2CCSCC2)cc1 (configuration not stated)
  -10%	1%	-8%	8%	3%	-3%	?	0.6%
Cc1ccc(C2CC2/C(=N/O)c2ccc(F)cc2)cc1 (configuration not stated)
  -9%	-2%	-4%	?	/	-7%	?	/
C=CCn1c(=S)[nH]c2scc(-c3ccco3)c2c1=O
  0%	15%	1%	3%	/	0%	0%[46.1 µM]	/
CSC1=N/C(=C\c2cccnc2)C(=O)N1c1ccccc1
  47%[activator]	4%	10%	?	3%	2%	3%	-7.3%
CN1C(=O)N(C)C(NC(=O)Nc2ccccc2)C1NC(=O)Nc1ccccc1 (configuration not stated)
  0%	-4%	1%	1%	-23%	0%	-10%	-21%
CCc1ccc(N2CC(C(=O)Nc3ccc(S(=O)(=O)N4CCOCC4)cc3)CC2=O)cc1 (configuration not stated)
  7%	10%	0%	-29%	/	/	-23%	/
Cc1ccc(S(=O)(=O)CCC(=O)Nc2nc(-c3cccnc3)cs2)cc1
  -11%	6%	10%	-6%[46.1 µM]	/	-4%	-1%[46.1 µM]	/
COc1ccc2c(c1)CCc1c(C(=O)Nc3c(C)nn(Cc4c(Cl)cccc4Cl)c3C)noc1-2
  -14%	/	/	17%[46.1 µM]	0%	/	-21%[46.1 µM]	-1.6%
O=C1C(=C2CCc3ccccc32)Cc2ccccc21
  34%[activator]	?	/	?	/	/	?	/
CCOc1ccccc1C1NC(=O)NC(C)=C1C(=O)OCc1ccco1 (configuration not stated)
  /	15%	1%	-1%	-9%	5%	-3%	-0.1%
CC1(C)CC(NC(=O)C2CCC(=O)N(Cc3ccccc3F)C2)CC(C)(C)C1 (configuration not stated)
  32%[activator]	?	-4%	-27%	/	-3%	-26%	/

Complete entries, quoted from the list:
COc1ccc2c(c1)CCc1c(C(=O)Nc3c(C)nn(Cc4c(Cl)cccc4Cl)c3C)noc1-2 is listed as 2A StopGo = -14%; RE007 growth inh = /; SARS PLpro yeast = /; LASV entry inh = 17%[46.1 µM]; Cruzain noTriton = 0%; NS1 function inh = /; MARV entry inh = -21%[46.1 µM]; Cruzain inh Det = -1.6%
O=C1C(=C2CCc3ccccc32)Cc2ccccc21 is listed as 2A StopGo = 34%[activator]; RE007 growth inh = ?; SARS PLpro yeast = /; LASV entry inh = ?; Cruzain noTriton = /; NS1 function inh = /; MARV entry inh = ?; Cruzain inh Det = /

Going on with the list.
Order of values: 2A StopGo	RE007 growth inh	SARS PLpro yeast	LASV entry inh	Cruzain noTriton	NS1 function inh	MARV entry inh	Cruzain inh Det
C#CCOC(=O)c1cc(Cl)c(=O)n(Cc2ccc(Cl)cc2Cl)c1
  -11%	-10%	-2%	/	/	-3%	/	/
CCOC(=O)c1nnn(CC(=O)NC(=O)Nc2cccc(CC)c2)c1C(=O)OCC
  -15%&-16%	-1%	-1%	-17%[46.1 µM]	9%	/	?	-12%
Brc1c(CSc2nncn2-c2ccccc2)nc2sccn12
  18%	-12%	3%	9%	1%	-11%	?	5.4%
O=S(=O)(Nc1cccc(-c2ccc(N3CCCCC3)nn2)c1)c1ccc(F)cc1F
  41%[activator]	/	/	2%[46.1 µM]	6%	/	/	-5.3%
CCCC(=O)Nc1ccc(C(=O)NNC(=S)NC(=O)c2cccs2)cc1
  /	11%	-6%	2%	-9%	-17%	-20%	-1.7%
Cc1ccc(NC(=O)Cn2c(-c3cncs3)nc3ccccc32)cc1Br
  -7%	/	/	?	-9%	/	/	1.0%
CN(CC(=O)Nc1ccccc1C(F)(F)F)C(=O)c1cc([N+](=O)[O-])ccc1N1CCOCC1
  -15%	3%	-2%	1%	/	8%	-19%	/
Cc1c(C(=O)Nc2ccncc2)oc2ccccc12
  -9%	-22%	-23%	-1%	-3%	-85%	-4%	-9.0%
CCn1nc(C)c(NC(=O)/C=C/c2ccc(OC)c(COc3ccc(Br)cc3)c2)c1C
  ?	-2%	-6%	?	?	5%	?	-6.7%
CC(C)OC(=O)/C(C#N)=C/c1ccc(-c2ccc(SC(F)F)cc2)o1
  -23%	?	-23%	-6%	-7%	-13%	?	-6.5%
CCC(C)NC(=O)C(NS(=O)(=O)c1cccc2nsnc12)c1ccccc1 (configuration not stated)
  12%	-12%	1%	-7%	-4%	1%	-16%	0.6%
COc1ccc(-c2cc(C(F)(F)F)nc(SCCC(=O)Nc3ccc(NC(C)=O)cc3)n2)cc1
  -11%	/	/	10%[46.1 µM]	1%	/	0%[46.1 µM]	-1.2%
CCN1CCCC1CNC(=O)Cn1nc(C)n2nc(-c3ccccc3)cc2c1=O (configuration not stated)
  -22%	1%	-2%	/	/	0%	/	/
Cc1ccc2nc(NC(=O)CSc3nc4ccccc4o3)sc2c1
  /	0%	12%	20%	1%	-3%	26%	2.1%
Cc1cc(Cl)ccc1OCC(=O)NCCCn1ccnc1
  -14%	16%	12%	2%	-5%	13%	?	-0.8%

Next structures
Order of values: 2A StopGo	RE007 growth inh	SARS PLpro yeast	LASV entry inh	Cruzain noTriton	NS1 function inh	MARV entry inh	Cruzain inh Det
COc1ccccc1CNC(=O)c1ccc2nc(N3CCCCC3)sc2c1
  49%[activator]	/	/	23%[46.1 µM]	-13%	/	?	-7.6%
CCC(C)Sc1oc(-c2ccco2)nc1S(=O)(=O)c1ccc(C)cc1 (configuration not stated)
  26%	/	/	-10%[46.1 µM]	21%	/	10µM*	6.2%
O=c1cc(-c2ccccc2)nc2cc(-c3ccc(F)cc3)[nH]n12
  22%&53%	-15%	/	?	-27%	/	?	6.5%
COc1ccc(/C=N/NC(=O)CNC(=O)C2COc3ccccc3O2)cc1OC (configuration not stated)
  -10%	-1%	-5%	-7%	6%	-1%	?	-5.5%
Cc1ccc(S(=O)(=O)N/N=C/c2cccc3nccnc23)cc1
  -19%	-13%	-1%	/	/	3%	/	/
O=C(CCN1CCCCC1)Nc1ccc(Cl)cc1C(=O)c1ccccc1
  -8%	1%	2%	/	/	9%	/	/
CC1CCCC(NC(=O)COC(=O)Cc2ccc(Br)cc2)C1C (configuration not stated)
  -5%	-6%	-2%	28%[46.1 µM]	/	3%	9%[46.1 µM]	/
CC(C)(C)c1ccc(C(=O)Nc2ccc(F)cc2)s1
  -25%	0%	-3%	?	/	6%	?	/
Cn1c(=O)[nH]c(=O)c2c1nc(NCc1ccccc1)n2Cc1ccc(F)cc1
  -4%	6%	-2%	/	/	-12%	/	/
NC(=O)CN1CC(O)CC1=O (configuration not stated)
  /	/	/	-6%	7%	-3%	1%&1%&1%&37%	-2.9%
CSC1=NC2(CCN(C(=O)NC3CCCCC3)CC2)N=C1c1ccc(C)c(C)c1
  -5%	/	/	?	-4%	/	/	-1.1%
Cn1c(=O)c(=O)n(C)c2cc(S(=O)(=O)Nc3ccc(OC(F)(F)F)cc3)ccc21
  /	-4%	-1%	9%	9%	8%	10%	2.0%
Cc1nn(Cc2ccccc2Cl)c(C)c1C(=O)NCCN1C(=O)S/C(=C\c2ccccc2)C1=O
  ?	-3%	-11%	-14%	-4%	1%	?	-1.3%
COc1ccccc1NS(=O)(=O)c1ccc(C(=O)NCC2(N(C)C)CCCCC2)cc1
  -18%	?	0%	3%	/	/	-18%	/
CCOC(=O)C1=C(Nc2ccc(Cl)cc2)OCC1=O
  -4%	3%	-1%	9%	/	-6%	10%	/

Continued.
Order of values: 2A StopGo	RE007 growth inh	SARS PLpro yeast	LASV entry inh	Cruzain noTriton	NS1 function inh	MARV entry inh	Cruzain inh Det
CC(C)C(=O)N1CCN(c2ccccc2NC(=O)c2ccc(C#N)cc2F)CC1
  -22%	-21%	-6%	-2%	/	/	?	/
CCOC(=O)c1cc(CC)sc1/N=C/C1C(=O)CCCC1=O
  -4%	-4%	-6%	1%[46.1 µM]	/	8%	1%[46.1 µM]	/
COc1ccc(CC(=O)Nc2c(C(=O)N3CCN(c4ccccc4OC)CC3)oc3ccccc23)cc1OC
  10%	16%	-6%	?	/	-30%	?	/
Cc1ccc(C)c(N(CC(=O)NC2CCCCC2)C(=O)CNC(=O)c2ccco2)c1
  16%	3%	2%	12%	/	1%	-1%[46.1 µM]	/
Cn1c(=O)[nH]c(=O)c2c1nc(N1CCOCC1)n2CC(=O)c1ccccc1
  -4%	30%	-1%	13%	/	-1%	-26%[46.1 µM]	/
OC(CCCC(O)c1ccccc1)c1ccccc1 (configuration not stated)
  -5%	-20%	/	5%	/	/	-3%	/
CCc1ccc(N2CC(C(=O)NCc3ccco3)CC2=O)cc1 (configuration not stated)
  -12%	-3%	-3%	11%	?	2%	5%	-4.6%
CCOc1ccc2nc(N/C(N)=N/S(C)(=O)=O)nc(C)c2c1
  35%[activator]	0%	-2%	/	/	0%	/	/
CCc1ccccc1NC(=O)CCC(=O)Nc1nnc(C(C)C)s1
  3%	4%	2%	/	/	-9%	/	/
COc1cccc(CSc2nc3cc(OC)c(OC)cc3c3nc(CCn4nc(C)cc4C)nn23)c1
  -20%	/	/	8%[46.1 µM]	-4%	/	13%[46.1 µM]	-1.5%
O=C(Nc1cc(S(=O)(=O)Nc2ccc(Cl)cc2)ccc1O)c1ccc(S(=O)(=O)N2CCCCCC2)cc1
  -17%	-20%	3%	?	/	6%	?	/
Cc1ccc(F)cc1NC(=O)CCc1c(C)[nH]c(=O)c(C#N)c1C
  2%	0%	1%	-5%	/	-25%	1%[46.1 µM]	/

Source: PubChem BioAssay
